Proteasome disasm = blocks ATP-dependent breakdown of the yeast 26S proteasome | anti-FLAG beads, GFP-proteasome disassembly, flow cytometry | inhibition of disassembly, % (no concentration beside the values) | actives 0.2% (n = 24,000) | AID 751;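 active = above 40%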;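 also: plate controls were ATP control with full disassembly for no effect and ATP-gamma-S intact proteasomes for full effect; higher percent means more bead fluorescence retained so stronger block of disassembly; stock transfer was 100 nL into about 10 µL; wells with too few beads may also be inconclusive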
VCAM-1 up = enhancers of VCAM-1 display on endothelial cells, cell-based, plate reader, pooled HUVEC, TNFa stimulus (AID 455). HUVEC TNFa-induced VCAM-1 immunofluorescence, plate reader; numbers were filed only for top-ranked candidate wells. augmentation, % at 5 µM. actives 0.2% (n = 10,000);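 active = a compound raising TNF-alpha-driven VCAM-1 surface staining, with its hit status upheld on visual or statistical review; inactive = the rest, including hits rejected on review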;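 also: 0% = TNFa with vehicle and 100% = strongest image-checked hit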
* marks the source's active call; other numbers are inactive results; i = inactive; / = not tested or not shown. This is a subset; rates above refer to the full screens.

Proteasome disasm,VCAM-1 up,Compound
-0.9,i,CC(=O)Nc1ccc(S(=O)(=O)NCC2CCC(C(=O)NCCCN3CCCC3=O)CC2)cc1 (stereo not given)
-0.3,/,COC(=O)C(F)(Sc1c(C)n(C)n(-c2ccccc2)c1=O)C(F)(F)F (stereo not given)
0.7,i,CCCn1nnnc1SCC(=O)c1ccc2c(c1)OCCO2
1.2,/,COc1ccc2c(c1)CCc1c(C(=O)Nc3ccc(OC)c(OC)c3)noc1-2
-1.6,/,O=C(O)c1ccccc1S(=O)(=O)Cc1ccccc1
-0.9,/,COc1ccc(CCNC(=O)COc2nsnc2N2CCOCC2)cc1OC
-2.0,/,O=c1cc(-c2ccccc2)c2c([nH]1)CCCC2
-0.8,i,CN(C)C(=O)C12CCC(C)(c3nc4ccccc4nc31)C2(C)C (stereo not given)
-1.5,i,O=C(Cn1c(-c2cncs2)nc2ccccc21)NC1CCCC1
-3.7,i,Cc1cc(C)c(-c2cc(C(=O)Nc3c(C)n(C)n(-c4ccccc4)c3=O)[nH]n2)c(O)c1
-2.7,/,O=C(O)C1C2CCC(O2)C1C(=O)NCc1ccncc1 (stereo not given)
-2.5,/,CC(=O)c1ccc(NC(=O)CSc2nnc(Cn3c(=O)sc4ccccc43)n2C)cc1
0.1,/,CCCn1cnc2cc(NCc3ccccn3)ccc21
-2.6,/,CCC(C)NC(=O)C1CCC(=O)N(c2cc(OC)c(OC)c(OC)c2)C1c1ccc(OC)cc1 (stereo not given)
-2.1,/,CCn1cc(C2N3CC4(C)CN2CC(C)(C3)C4=O)c2ccccc21 (stereo not given)
2.3,i,c1ccc2c(NC3CCCC3)nnc(NC3CCCC3)c2c1
-0.3,/,Cc1cc(NC(=O)c2cc(C3CC3)on2)no1
-0.7,i,O=C(/C=C1\NC2(CCCC2)Cc2ccccc21)N1CCOCC1
1.1,/,CCN(c1cccc(C)c1)S(=O)(=O)c1cccc2nsnc12
0.7,/,CCS(=O)(=O)N1CCC(C(=O)N2CCc3ccccc3C2)CC1

Single records, from the list above.
COc1ccc2c(c1)CCc1c(C(=O)Nc3ccc(OC)c(OC)c3)noc1-2 in the list: Proteasome disasm: 1.2; VCAM-1 up: /
CC(=O)c1ccc(NC(=O)CSc2nnc(Cn3c(=O)sc4ccccc43)n2C)cc1 in the list: Proteasome disasm: -2.5; VCAM-1 up: /
Cc1cc(NC(=O)c2cc(C3CC3)on2)no1 in the list: Proteasome disasm: -0.3; VCAM-1 up: /

Additional structures:
Proteasome disasm,VCAM-1 up,Compound
-2.5,i,COc1ccc(Cl)cc1NC(=O)COc1cccc(-n2cnnn2)c1
0.6,/,CCOC(=O)N1CCC(NC(=O)Cn2cccc2C(=O)c2ccccc2C)CC1
0.8,/,O=C(CCS(=O)(=O)c1cccc2nonc12)N1CCN(c2ccc(F)cc2)CC1
1.8,i,C=CS(=O)(=O)c1ccc(Oc2ccc(S(=O)(=O)C=C)cc2)cc1
0.2,/,O=C(NC1CCCC1)c1ccc(CS(=O)(=O)c2ccc(Br)cc2)o1
3.5,/,CCOc1ccc(N(CC(=O)O)S(=O)(=O)c2cccnc2)cc1
0.1,i,Oc1cnc2ccccc2c1CN1CCOCC1
0.4,/,COc1ccc(NC(=O)C2CCCCN2S(=O)(=O)c2ccc(F)cc2)c(OC)c1 (stereo not given)
0.0,i,CCOC(=O)Cc1csc(/C(=N/O)C(N)=O)n1
-1.7,i,c1ccc(CCn2nnnc2CN2CCN(C3CCCC3)CC2)cc1
-3.2,/,CCOc1ccc(OCC)c(NC(=O)C2CCN(c3nn4c(=O)cc(C)nc4s3)CC2)c1
0.6,/,COc1ccc(OC)c(NS(=O)(=O)c2ccc(Cl)s2)c1
-2.4,i,C=CCSc1nnc2n(CCc3ccccc3)c(=O)c3c4c(sc3n12)COC(C)(C)C4
0.0,i,COc1ccc2c(c1OC)C(=O)OC2Nn1cncn1 (stereo not given)
6.5,/,COc1ccc(-c2nc(N3CCCC3)nc3nn4c(C)cc(C)nc4c23)cc1
-0.9,/,CCOC(=O)N1CCN(c2c(NCCCN(CC)Cc3ccccc3)c(=O)c2=O)CC1
3.5,i,CCCCCc1nnc(NC(=O)Cc2cccs2)s1
-1.4,/,CCCN1Cc2cccc(C(=O)NCc3ccccc3)c2C1=O
1.3,i,COc1c2occc2c(OC)c2c(=O)cc(C)oc12
-1.9,i,CN(C)S(=O)(=O)c1ccc(S(=O)(=O)Nc2ccc3c(c2)oc2ccccc23)cc1

Other results:
Proteasome disasm,VCAM-1 up,Compound
-39,i,Cc1ccc(C2Nc3ccccc3-c3nc4ccccc4n32)o1 (stereo not given)
0.6,i,Cc1cccc(-n2c(Cc3cc(=O)[nH]c(=O)[nH]3)nnc2SCC(=O)NCc2ccco2)c1
2.1,/,COc1ccc(/C(O)=C(\C#N)c2nc3ccccc3n2C)cc1OC
0.3,i,O=C(NCCSc1c[nH]c2ccccc12)c1ccc(Br)o1
-1.3,/,Cc1ccc(S(=O)(=O)N2CCC(C(=O)N3CCC(C(=O)NCC4CCCO4)CC3)CC2)cc1 (stereo not given)
-0.2,/,CC(=O)Nc1cccc(NC(=O)CCn2c(=O)sc3ccccc32)c1
0.8,i,CN(Cc1ccccc1)C(=O)c1cc(-c2ccc(Br)cc2)on1
0.4,i,NCc1ccc(S(N)(=O)=O)cc1
2.8,/,COC(=O)c1ccc(N=c2sc(C(=O)OC)cc(=O)n2C)cc1
-1.6,/,COc1ccc(-n2c(Cn3c(=O)sc4ccccc43)nnc2SCC(=O)N2CCOCC2)cc1
-0.2,/,CC1CCCN(c2nc3ccsc3c(=O)s2)C1 (stereo not given)
9.4,/,Cn1c(=O)c2cc(S(=O)(=O)N3CCN(c4cccc(C(F)(F)F)c4)CC3)ccc2n(C)c1=O
0.4,i,O=C(NCc1ccc2c(c1)OCO2)c1ccc(NS(=O)(=O)c2ccc3c(c2)OCCO3)cc1
1.5,/,O=C(CCSCc1ccccc1F)N1CCN(c2ccccn2)CC1
1.1,/,COCCCNC(=O)c1ccc(CS(=O)(=O)Cc2cccc(C)c2)o1
-0.6,i,Cc1ccc(S(=O)(=O)N2CCCC2)cc1S(=O)(=O)N1CCCC1
-0.5,i,CCC(NC(=O)Nc1cc(OC)c(OC)c(OC)c1)(C(F)(F)F)C(F)(F)F
-0.1,/,CC(NC(=O)c1ccc(CS(=O)(=O)Cc2ccccc2F)o1)c1ccc2c(c1)OCCO2 (stereo not given)
2.3,/,CC(c1ccc(Br)cc1)N1CC23C=CC(O2)C(C(=O)O)C3C1=O (stereo not given)
-3.4,/,Cc1noc(C(=O)Nc2c(C)nn(Cc3ccccc3)c2C)c1Cl

(listing goes on)
Proteasome disasm,VCAM-1 up,Compound
-0.9,/,Cc1cc(=O)n(C)c(=O)n1CC(=O)N1CCCCCC1
0.4,i,Cc1ccc(C(=O)CSc2nnc(-c3cccnc3)n2N)cc1
0.1,i,COC(=O)c1ccccc1S(=O)(=O)N(Cc1cc2cc3c(cc2[nH]c1=O)OCO3)C1CCCCC1
1.1,/,COc1ccc(CNC(=O)C2CC(c3ccc(OC)cc3)=NO2)cc1 (stereo not given)
-1.4,/,COc1ccc(CCNC(=O)CCn2c(SCC#N)nc3ccccc3c2=O)cc1OC
-1.5,/,O=C(Cn1nc(Cc2cccnc2)c2ccccc2c1=O)N1CCN(c2ccccn2)CC1
0.4,i,Cc1[nH]c2c(C)cccc2c(=O)c1Br
-0.2,i,Cn1c(=O)c(C(=O)Nc2cccnc2)c(O)c2ccccc21
0.2,i,COc1ccc(C2C(C#N)=C(N)Oc3cc4c(cc32)OCO4)cc1 (stereo not given)
-0.5,i,CC(C)COC(=O)C(C#N)c1nc2ccccc2nc1N1CCN(Cc2ccccc2)CC1 (stereo not given)
-1.1,/,c1ccc2c(c1)CCCN2c1nc2ccccc2n2cnnc12
0.7,i,Cc1ccc(-c2nc3cc(NC(=O)C(C)C)ccc3o2)cc1
-4.7,/,CC(NC(=O)C1CCC(=O)N1Cc1ccc(F)cc1)c1ccc2c(c1)OCCO2 (stereo not given)
0.4,/,O=C(NCc1ccccn1)Nc1cccc(NC(=O)NCc2ccccn2)c1
0.6,/,O=c1c2ccccc2nc2n1CCC2
1.1,/,Cc1nc2c(C(=O)NCc3ccco3)cnn2c(C)c1Cc1ccc(F)cc1Cl
-0.1,i,Cc1ccc(-c2nnc(-c3cccc(Br)c3)o2)cc1
10,/,COC(=O)NCC(c1cccnc1)N1CCN(c2ccccc2OC)CC1 (stereo not given)
0.1,/,COCCNC(=O)CCCn1c(=O)c2ccccc2n(CC(=O)NCCC2=CCCCC2)c1=O
-0.3,/,CCCCc1c(C)nc(N)[nH]c1=O

Next part:
Proteasome disasm,VCAM-1 up,Compound
1.9,i,O=c1n(CCCN2CCN(c3cccc(Cl)c3)CC2)nc2ccccn12
0.0,/,O=C1Nc2cc(C(=O)N3CCOCC3)ccc2SC1N1CCOCC1 (stereo not given)
2.9,/,CCCc1cc(C(=O)NCc2ccccc2)no1
0.4,/,Cc1c(Cl)cccc1NC(=O)Cn1cccc1
-0.2,/,Cc1cc(N2CCOCC2)nc2cc(O)ccc12
1.9,/,O=C(CCCN1C(=O)c2cccnc2C1=O)N1CC(=O)N(CCc2ccccc2)C(=O)C1
0.0,i,C=CC(O)(C#CCN(CC)CC)c1ccccc1 (stereo not given)
3.6,i,Cc1c(Cc2ccccc2)sc(N)c1C(N)=O
-0.5,/,C#CCn1cnc2c(cnn2-c2ccc(C)c(C)c2)c1=O
-1.1,/,O=C(Nc1ccccc1)N1CCn2c(nc3ccccc32)C1
0.4,/,COC(=O)CSc1nnc(CNC(=O)c2cccc(C)c2)n1-c1ccccc1OC
0.8,i,CN(C)CCOC(c1ccccc1)c1ccccc1 (tested in a mixture with another compound)
-1.8,/,CCCCOC(=O)c1ccc(NC(=O)C(CCS(C)(=O)=O)NC(C)=O)cc1 (stereo not given)
-2.0,i,Cc1ccccc1CN1CCN(CC(=O)NCc2ccco2)C1=O
-0.2,/,CCOCCn1c(CN(Cc2ccccc2)Cc2ccccc2)nc2c1c(=O)[nH]c(=O)n2C
1.4,/,Cc1nc2ccccc2n1CC(O)Cn1c(C(F)(F)F)nc2ccccc21 (stereo not given)
-0.1,/,CCOc1ccccc1CNC(=O)C1CCN(c2nc3ccccc3o2)CC1
0.2,/,O=C(c1n[nH]c(=O)c2ccccc12)N1CCN(c2ccccc2)CC1
0.8,/,COc1cccc(Nc2ncc(C(=O)O)c3ccccc23)c1
1.8,i,CCC(=O)n1nc(-c2ccco2)nc1N

Additional structures.
Proteasome disasm,VCAM-1 up,Compound
-0.5,/,CCCCN(C)CCNC(=O)Cn1ncc2c(=O)oc3ccc(C)cc3c21
-0.5,/,COC(=O)c1cc2ccsc2n1CC(=O)Nc1cc(Cl)ccc1OC
-1.4,/,Cn1c2ccccc2c2c(C(=O)N3CCN(c4ccccc4)CC3)cn(C3CCCC3)c(=O)c21
-0.8,/,Cc1cc(C(=O)N2CC(C)CC(C)C2)n(-c2ccccc2)n1 (stereo not given)
-1.1,/,CCOCCCNS(=O)(=O)c1ccc2c(c1)CCN2C(C)=O
-1.5,/,CCCS(=O)(=O)N1CCC(C(=O)N2CCN(Cc3ccccc3)CC2)CC1
3.2,/,CC(=O)N1CCc2cc(S(=O)(=O)N3CCc4ccccc4C3)ccc21
2.5,i,CSCCC(C(=O)Nc1ccc2c(c1)OCO2)N1C(=O)c2ccccc2C1=O (stereo not given)
3.6,/,CCN1CCN(CCCNC(=O)c2ccc3c(c2)NC(=O)c2ccccc2S3)CC1
-0.5,i,Clc1ccccc1OCc1nn2c(-c3ccncc3)nnc2s1
1.4,/,Cc1cc(NC(=O)c2cc(CC(C)C)on2)no1
0.1,/,CC1C(=O)CCC1(C(=O)O)c1ccccc1 (stereo not given)
-1.1,/,CC1(C)CC2(CCO1)OC(=O)CC2C(=O)NCCc1ccccc1 (stereo not given)
-1.4,i,Cn1c(SCCN2CCCCC2)nnc1-c1ccccc1Br
0.1,/,COc1ccc(N(CC(=O)Nc2cc(OC)ccc2OC)S(=O)(=O)c2c(C)nn(C)c2C)cc1
-1.9,i,CCn1c(SCC(=O)c2ccc(F)cc2)nnc1-c1ccoc1C
0.9,i,Cc1cc(NC(=O)CSc2nccn2-c2ccc(F)cc2)no1
0.4,i,COc1cccc(CNC(=O)CCn2c(=O)oc3ccccc32)c1
0.1,/,Cc1c(C(=O)NCc2ccco2)oc2ccc(S(=O)(=O)N3CCC4(CC3)OCCO4)cc12
-1.1,/,COc1ccc(-n2c(C)nc3cc(C(=O)N4CCOCC4)ccc32)cc1

Compounds from the list above with a CF3 group (four):
Proteasome disasm,VCAM-1 up,Compound
-0.3,/,COC(=O)C(F)(Sc1c(C)n(C)n(-c2ccccc2)c1=O)C(F)(F)F (stereo not given)
9.4,/,Cn1c(=O)c2cc(S(=O)(=O)N3CCN(c4cccc(C(F)(F)F)c4)CC3)ccc2n(C)c1=O
-0.5,i,CCC(NC(=O)Nc1cc(OC)c(OC)c(OC)c1)(C(F)(F)F)C(F)(F)F
1.4,/,Cc1nc2ccccc2n1CC(O)Cn1c(C(F)(F)F)nc2ccccc21 (stereo not given)

(cont.)
Proteasome disasm,VCAM-1 up,Compound
-1.8,/,CC(=O)NCCn1c(SCc2cc(=O)n3cc(Cl)ccc3n2)nc2ccccc2c1=O
-3.2,/,O=C(Cn1ncc2c(=O)oc3ccccc3c21)N1CCN(C(=O)c2ccco2)CC1
-0.1,i,CCN(CC)c1nc(N(CC)CC)[nH]c(=O)n1
-2.2,i,Cc1oc2c(c1C(=O)NCc1ccccc1)CCCC2
0.1,/,COc1cc(NS(=O)(=O)c2ccc3c(c2)oc(=O)n3C)cc(OC)c1OC

4 entries drawn at random from those above, as already listed:
Proteasome disasm,VCAM-1 up,Compound
1.4,/,Cc1cc(NC(=O)c2cc(CC(C)C)on2)no1
-0.2,/,CC(=O)Nc1cccc(NC(=O)CCn2c(=O)sc3ccccc32)c1
-0.2,/,CC1CCCN(c2nc3ccsc3c(=O)s2)C1 (stereo not given)
1.5,/,O=C(CCSCc1ccccc1F)N1CCN(c2ccccn2)CC1

Assay outcomes as filed in PubChem.
